Source: PubChem BioAssay
MLL AF4-AF9 inh – inhibitors of AF4 peptide binding to AF9, primary screen, biochemical, AlphaScreen, biotin-AF4 peptide, FLAG-AF9, single point; inhibition, % at 10 µM; AID 651704, 2012; actives 0.47% (n = 350,000);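 active = every replicate reaching a set inhibition limit, whatever the replicate mean, cut at about 25% in these data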;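 note: 0% = plate neutral control median and 100% = total signal loss; the record names both 10 and 1 µM as test concentration; the first replicate is given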
Target sequence (P42568 whole entry, looked up): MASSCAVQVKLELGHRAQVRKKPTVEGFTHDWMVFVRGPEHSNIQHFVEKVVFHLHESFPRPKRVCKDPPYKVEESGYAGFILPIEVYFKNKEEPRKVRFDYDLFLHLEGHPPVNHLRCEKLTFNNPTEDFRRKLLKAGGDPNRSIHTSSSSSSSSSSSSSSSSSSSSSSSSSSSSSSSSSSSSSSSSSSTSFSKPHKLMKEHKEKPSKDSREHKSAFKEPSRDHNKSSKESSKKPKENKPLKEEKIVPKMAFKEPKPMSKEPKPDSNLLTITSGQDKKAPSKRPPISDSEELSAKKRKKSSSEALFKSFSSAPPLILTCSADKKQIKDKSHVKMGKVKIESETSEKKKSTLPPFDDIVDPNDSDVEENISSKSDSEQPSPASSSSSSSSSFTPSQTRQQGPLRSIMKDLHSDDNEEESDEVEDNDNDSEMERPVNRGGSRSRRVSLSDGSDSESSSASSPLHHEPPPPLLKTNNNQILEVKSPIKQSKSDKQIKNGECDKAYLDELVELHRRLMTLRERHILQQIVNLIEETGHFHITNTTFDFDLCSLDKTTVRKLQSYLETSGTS
Starred values were filed as active, the others as inactive; & = joins results of further samples. Only part of the results is shown; count on the stated rates, not on these rows.

SMILES	MLL AF4-AF9 inh
CCC(c1nc2ccccc2[nH]1)n1c(=O)c(-c2ccccc2)nc2ccccc21 (centres undefined)	12
C[C@H](CO)N1C[C@H](C)[C@@H](CN(C)Cc2ccccc2)OCCCC[C@H](C)Oc2ccc(NC(=O)Nc3cccc4ccccc34)cc2C1=O	-0.7
Cc1ccc(S(=O)(=O)Nc2cccc3c2O[C@@H](CN(C)C(=O)Nc2ccc(C(F)(F)F)cc2)[C@@H](C)CN([C@@H](C)CO)C3=O)cc1	-4.3
COc1ccc(S(=O)(=O)Nc2ccc3c(c2)CC(=O)N([C@@H](C)CO)C[C@@H](C)[C@@H](CN(C)Cc2ccc4c(c2)OCO4)O3)cc1	-1.4
C[C@H](CO)N1C[C@H](C)[C@@H](CN(C)Cc2ccc(Cl)c(Cl)c2)Oc2ccc(NC(=O)Nc3ccc(C(F)(F)F)cc3)cc2CC1=O	1.5
CC1(C(=O)NCCC#N)CCN1C(=O)C1(c2ccccc2)CC1 (centres undefined)	-3.2
COc1cccc(-c2ccc([C@H]3[C@H](CO)N4C(=O)CN(C(=O)NC(C)C)C[C@@H]34)cc2)c1	-0.7
COc1ccccc1CN1[C@@H]2CN(C(=O)c3ccc(F)cc3)c3ccccc3[C@@H]2[C@@H]1CO	1.2
c1ccc(-c2cc3nc(NCC4CC4)nc(NCC4CCCCC4)c3s2)cc1	1.0
CO[C@@H]1CN(C)C(=O)c2cc(NC(C)=O)ccc2OC[C@H](C)N(C(=O)C2CCC2)C[C@@H]1C	1.5
CCCCC[C@@H](C)N1C[C@@H](COCc2ccccc2)Oc2cc(N3CC[C@H](N(C)C)C3)ccc2S1(=O)=O	17
C[C@@H]1CCCCO[C@H](CN(C)CC2CCCCC2)[C@@H](C)CN([C@H](C)CO)C(=O)c2cc(NC(=O)Nc3ccc(F)cc3)ccc2O1	3.4
CC(C)N1C(=O)c2ccccc2NC(=O)C1C(=O)NCc1ccccc1 (centres undefined)	1.5
C[C@H]1CN([C@@H](C)CO)C(=O)c2cccc(NC(=O)C3CCOCC3)c2O[C@@H]1CN(C)Cc1ccc(-c2ccccc2)cc1	2.0
CN(C)C(=O)[C@@H]1[C@@H](CO)[C@@H]2Cn3c(ccc(-c4ccncc4)c3=O)[C@H]1N2CC1CCCC1	0.5
COc1ccc(NC(=O)Nc2ccc3c(c2)CC(=O)N([C@@H](C)CO)C[C@@H](C)[C@H](CN(C)Cc2ccc(-c4ccccc4)cc2)O3)cc1	1.4
N#Cc1cccc(-c2ccc(C3[C@H]4CNC[C@@H]3N4S(=O)(=O)c3ccccc3)cc2)c1 (some centres undefined)	-4.9&-2.9
C[C@@H]1CCCCO[C@@H](CN(C)Cc2ccc3c(c2)OCO3)[C@H](C)CN([C@H](C)CO)C(=O)c2cc(NC(=O)CCC(F)(F)F)ccc2O1	5.7
CCCC#Cc1cnc2c(c1)C(=O)N([C@H](C)CO)C[C@@H](C)[C@H](CN(C)C(=O)c1cccnc1)O2	-2.3
CO[C@@H]1CN(C)C(=O)c2ccc(NS(=O)(=O)c3cccc(Cl)c3)cc2OC[C@H](C)NC[C@H]1C	-7.5
O=C(C[C@H]1C[C@@H]2c3cc(NC(=O)NC4CCCC4)ccc3O[C@@H]2[C@H](CO)O1)NCc1cccc(F)c1	-0.5
Cc1cc(C(=O)N2CCC2(C)C(=O)O)c(C)o1 (centres undefined)	-2.0
COCCNC(=O)C[C@H]1C[C@@H]2c3cc(NC(=O)CC4CC4)ccc3O[C@@H]2[C@H](CO)O1	-1.0
O=C(C[C@H]1C[C@H]2c3cc(NC(=O)Nc4ccc(C(F)(F)F)cc4)ccc3O[C@H]2[C@@H](CO)O1)NCc1ccccn1	-0.8
CO[C@H]1CN(C)C(=O)c2ccc(NS(=O)(=O)CC(F)(F)F)cc2OC[C@H](C)N(CCC(F)(F)F)C[C@@H]1C	-3.1
Cc1ccc(S(=O)(=O)N(C)C[C@H]2OCCCC[C@@H](C)Oc3ccc(NS(=O)(=O)c4cccs4)cc3C(=O)N([C@H](C)CO)C[C@@H]2C)cc1	-2.3
O=C(Nc1ccc(F)cc1)N1C[C@H]2[C@@H](c3ccccc31)[C@H](CO)N2C(=O)Cc1ccccc1	0.2
CCCNC(=O)C[C@H]1CC[C@@H]2[C@H](COC[C@H](O)CN2Cc2cccc(F)c2)O1	-2.2
O=C(C[C@H]1CC[C@H]2[C@@H](COC[C@H](O)CN2C(=O)Nc2ccc(Cl)cc2)O1)N1CCCCC1	3.0
COc1ccc(NC(=O)N(C)C[C@@H]2OCCCC[C@@H](C)Oc3ccc(NC(=O)C4CCCCC4)cc3C(=O)N([C@H](C)CO)C[C@H]2C)cc1	0.0
CCN1CCN(C(c2ccccc2)c2nnnn2C(C)(C)C)CC1 (centres undefined)	-1.2
C[C@@H]1CN([C@@H](C)CO)C(=O)c2c(c3ccccc3n2C)-c2ccccc2CO[C@H]1CN(C)C(=O)Nc1ccc(-c2ccccc2)cc1	-2.8
C[C@@H]1CN([C@H](C)CO)C(=O)c2cc(NC(=O)c3ccncc3)ccc2O[C@@H](C)CCCCO[C@@H]1CN(C)S(=O)(=O)c1ccc(Cl)cc1	4.1
O=C(C[C@H]1CC[C@H](NC(=O)Nc2ccc(C(F)(F)F)cc2)[C@H](CO)O1)NCc1ccccn1	11
Cc1ccc(S(=O)(=O)N(C)C[C@@H]2OCCCC[C@H](C)Oc3ccc(NC(=O)NC(C)C)cc3C(=O)N([C@H](C)CO)C[C@@H]2C)cc1	1.7
COC(=O)C[C@H]1C[C@H]2c3cc(NC(=O)c4ccc5c(c4)OCO5)ccc3O[C@H]2[C@@H](CO)O1	0.4

Ordered by value in MLL AF4-AF9 inh (ascending): 4 from the list above.
SMILES | MLL AF4-AF9 inh
CO[C@H]1CN(C)C(=O)c2ccc(NS(=O)(=O)CC(F)(F)F)cc2OC[C@H](C)N(CCC(F)(F)F)C[C@@H]1C | -3.1
CCCC#Cc1cnc2c(c1)C(=O)N([C@H](C)CO)C[C@@H](C)[C@H](CN(C)C(=O)c1cccnc1)O2 | -2.3
COc1ccc(S(=O)(=O)Nc2ccc3c(c2)CC(=O)N([C@@H](C)CO)C[C@@H](C)[C@@H](CN(C)Cc2ccc4c(c2)OCO4)O3)cc1 | -1.4
CCC(c1nc2ccccc2[nH]1)n1c(=O)c(-c2ccccc2)nc2ccccc21 (centres undefined) | 12

Carrying on:
SMILES	MLL AF4-AF9 inh
CC(C)NC(=O)Nc1ccc2c(c1)C(=O)N([C@H](C)CO)C[C@H](C)[C@H](CN(C)C(=O)Nc1cccc3ccccc13)O2	0.7
Cc1cc(N2O[C@]34C=C[C@]25C[C@@H](O)CC[C@]5(C)C3CC[C@]2(C)[C@@H]([C@H](C)/C=C/[C@H](C)C(C)C)CC[C@H]24)no1 (some centres undefined)	4.1
CC(C)NC(=O)N(C)C[C@H]1OCCCC[C@@H](C)Oc2ccc(NS(=O)(=O)c3ccccc3)cc2C(=O)N([C@H](C)CO)C[C@@H]1C	3.4
C[C@H](CO)N1C[C@H](C)[C@@H](CN(C)S(=O)(=O)c2cn(C)cn2)Oc2ncc(C#CCN(C)C)cc2C1=O	-1.0
CCCC(=O)Nc1ccc2c(c1)C(=O)N(C)C[C@H](OC)[C@H](C)CN(CC1CCCC1)[C@H](C)CO2	4.2
O=C(c1ccncc1)N1CCCCN2[C@H](C1)[C@@H](c1ccc(C#Cc3ccccn3)cc1)[C@@H]2CO	-4.9
CC(C)(C)S(=O)N1C[C@@H]2CC(=O)C=C2[C@H]1CCO (some centres undefined)	-3.0
CCC(=O)N1[C@@H](CO)[C@@H]2c3ccccc3N(C(=O)c3cnccn3)C[C@@H]21	-0.4
CNC[C@H]1Oc2ccc(N(C)C)cc2C(=O)N([C@H](C)CO)C[C@H]1C	0.1
CCCNC(=O)Nc1ccc2c(c1)C(=O)N(C)C[C@@H](OC)[C@H](C)CN(Cc1cccnc1)[C@@H](C)CO2	-8.0
CC(C)NC(=O)N(C)C[C@@H]1Oc2c(NC(=O)C3CCCCC3)cccc2C(=O)N([C@@H](C)CO)C[C@@H]1C	-1.8
CCCNC(=O)N(C)C[C@@H]1Oc2ncc(-c3ccncc3)cc2C(=O)N([C@H](C)CO)C[C@@H]1C	-3.0&-4.8&-3.7
CCCN(C)C[C@H]1Oc2cc(-c3cccnc3)ccc2S(=O)(=O)N([C@H](C)CO)C[C@H]1C	0.1
COc1cc2c(cc1OC)CN(C1CCCN(Cc3cccc(C(C)=O)c3)C1)CC2 (centres undefined)	1.5
O=C(C[C@H]1CC[C@@H]2[C@H](COC[C@@H](O)CN2C(=O)c2ccccc2F)O1)N1CCN(c2ccccc2)CC1	1.2
COCC(=O)N(C)C[C@@H]1Oc2ncc(-c3ccc(C)cc3)cc2C(=O)N([C@@H](C)CO)C[C@H]1C	0.0
O=C(C[C@@H]1CC[C@H]2[C@@H](COC[C@@H](O)CN2CC2CC2)O1)NCC1CC1	-1.3
O=C(Nc1nccs1)[C@@H]1[C@@H](CO)[C@@H]2Cn3c(cccc3=O)[C@@H]2N1C(=O)C1CCCC1	-2.6
COc1ccc(S(=O)(=O)Nc2ccc3c(c2)C(=O)N([C@@H](C)CO)C[C@@H](C)[C@@H](CN(C)S(=O)(=O)c2ccc(C)cc2)O3)cc1	-14
CN1C(=O)c2cc(NC(=O)C3CC3)ccc2OC[C@H]2O[C@@H](CC(=O)NCC3CCCCC3)CC[C@@H]21	-4.1
Cc1noc(C)c1NC(=O)N(C)C[C@H]1Oc2ccc(NC(=O)NC3CCCCC3)cc2C(=O)N([C@@H](C)CO)C[C@H]1C	-4.1
CC(C)NC(=O)Nc1ccc2c(c1)C(=O)N([C@@H](C)CO)C[C@H](C)[C@@H](CN(C)C(=O)Nc1ccccc1)OCCCC[C@H](C)O2	1.6
O=C(C[C@H]1C[C@@H]2c3cc(NC(=O)Nc4ccccc4F)ccc3O[C@@H]2[C@H](CO)O1)NC1CCCCC1	-15
CO[C@H]1CN(C)C(=O)c2cc(NC(=O)C3CCC3)ccc2OC[C@@H](C)NC[C@@H]1C	-1.7

Quoted at random: 4 records from the list.
SMILES	MLL AF4-AF9 inh
CN1C(=O)c2cc(NC(=O)C3CC3)ccc2OC[C@H]2O[C@@H](CC(=O)NCC3CCCCC3)CC[C@@H]21	-4.1
COCC(=O)N(C)C[C@@H]1Oc2ncc(-c3ccc(C)cc3)cc2C(=O)N([C@@H](C)CO)C[C@H]1C	0.0
CCCN(C)C[C@H]1Oc2cc(-c3cccnc3)ccc2S(=O)(=O)N([C@H](C)CO)C[C@H]1C	0.1
Cc1noc(C)c1NC(=O)N(C)C[C@H]1Oc2ccc(NC(=O)NC3CCCCC3)cc2C(=O)N([C@@H](C)CO)C[C@H]1C	-4.1

Going on with the list.
SMILES	MLL AF4-AF9 inh
O=C(Cc1ccncc1)NCC[C@@H]1CC[C@H](NC(=O)C2CC2)[C@H](CO)O1	-1.2
C[C@@H]1CN([C@@H](C)CO)C(=O)c2cccc(NC(=O)c3ccc(-c4nccs4)cc3)c2O[C@@H]1CN(C)Cc1ccc(C(F)(F)F)cc1	0.1
Cc1noc(C)c1NC(=O)Nc1ccc2c(c1)C(=O)N([C@@H](C)CO)C[C@H](C)[C@H](CN(C)C(=O)NC1CCCCC1)OCCCC[C@H](C)O2	3.9
Cc1ccc(S(=O)(=O)N[C@H]2CC[C@H](CCn3cc(C(C)C)nn3)O[C@@H]2CO)cc1	-0.2
COc1ccc(S(=O)(=O)Nc2ccc3c(c2)C(=O)N([C@H](C)CO)C[C@H](C)[C@@H](CN(C)S(=O)(=O)c2ccc(F)cc2)OCCCC[C@@H](C)O3)cc1	-3.7
O=C(N[C@@H]1CC[C@@H](CCNC(=O)C2CC2)O[C@H]1CO)c1ccccn1	1.6
O=C(Nc1cccc(F)c1)N1CC(=O)N2[C@H](C1)[C@H](c1ccc(C#CC3CC3)cc1)[C@@H]2CO	0.1
CO[C@H]1CN(C)C(=O)c2cc(NS(=O)(=O)CC(F)(F)F)ccc2OC[C@H](C)N(C(=O)NC(C)C)C[C@H]1C	-3.3
C[C@H]1CN([C@@H](C)CO)C(=O)c2cccc(NC(=O)c3nc4ccccc4s3)c2O[C@H]1CN(C)S(C)(=O)=O	1.1
CC1CC(C)(C)CC2(C1)NC(=O)N(CC(=O)N1CCN(S(=O)(=O)c3cccc(Cl)c3Cl)CC1)C2=O (centres undefined)	1.2
Cc1cccc(C)c1-n1nnnc1C(CCc1ccccc1)N1CCN(C/C=C/c2ccccc2)CC1 (centres undefined)	-2.7
CO[C@@H]1CN(C)C(=O)c2cc(NS(=O)(=O)c3cccc(Cl)c3)ccc2OC[C@H](C)NC[C@H]1C	-12
C[C@@H]1CN([C@@H](C)CO)S(=O)(=O)c2ccc(-c3ccccc3)cc2O[C@@H]1CN(C)C(=O)c1ccc2c(c1)OCO2	-7.4
COc1cccc(NC(=O)N2C[C@@H](O)COC[C@@H]3O[C@@H](CC(=O)NC4Cc5ccccc5C4)CC[C@H]32)c1	-0.5
O=C(Nc1ccccc1F)N1CCCCN2[C@H](C1)[C@@H](c1ccc(C3=CCCC3)cc1)[C@@H]2CO	-8.8
CC1(C(=O)NS(=O)(=O)c2ccccc2Cl)CCN1C(=O)CC1CCCCC1 (centres undefined)	-6.7
C[C@@H](O)C#Cc1ccc2c(c1)O[C@@H](CN(C)Cc1ccccn1)[C@@H](C)CN([C@@H](C)CO)S2(=O)=O	-3.2
COc1ccccc1Cc1c(-c2ccc(OC)c(OC)c2)nc2cc(C)c(Br)c(C)n12	4.6
CC(C)c1ccc(NC(=O)c2cc(-c3cc(F)ccc3OCC3CCCO3)n[nH]2)cc1 (centres undefined)	-1.0
CCC(=O)N1[C@H](CO)[C@H](c2ccccc2-c2cccc(C)c2)[C@@H]1C#N	-2.5
C[C@H](CO)N1C[C@H](C)[C@H](CN(C)Cc2ccccn2)Oc2cc(-c3cccc(C#N)c3)ccc2S1(=O)=O	1.5
